TRPML1 blocker – blocks the human TRPML1 channel; TRPML1-inducible cells, Ca2+ dye fluorescence, FDSS; active compounds read low; inhibition of EC80 agonist-evoked calcium signal; activity change, negative = inhibition, % (test concentration not listed); Q9GZU1; 390,000 tested, 0.02% active; in the data active means activity change below about -50%; inconclusive means about -30% to -50%; inactive means above about -30%;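 further: stimulus is agonist 54-4 at its EC80 concentration; on the % scale 0 is the no-effect control and ±100 the full control effect; compound concentration not given in the record; the text of the record puts the active cut at -80%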
Target sequence (Q9GZU1 whole entry, looked up): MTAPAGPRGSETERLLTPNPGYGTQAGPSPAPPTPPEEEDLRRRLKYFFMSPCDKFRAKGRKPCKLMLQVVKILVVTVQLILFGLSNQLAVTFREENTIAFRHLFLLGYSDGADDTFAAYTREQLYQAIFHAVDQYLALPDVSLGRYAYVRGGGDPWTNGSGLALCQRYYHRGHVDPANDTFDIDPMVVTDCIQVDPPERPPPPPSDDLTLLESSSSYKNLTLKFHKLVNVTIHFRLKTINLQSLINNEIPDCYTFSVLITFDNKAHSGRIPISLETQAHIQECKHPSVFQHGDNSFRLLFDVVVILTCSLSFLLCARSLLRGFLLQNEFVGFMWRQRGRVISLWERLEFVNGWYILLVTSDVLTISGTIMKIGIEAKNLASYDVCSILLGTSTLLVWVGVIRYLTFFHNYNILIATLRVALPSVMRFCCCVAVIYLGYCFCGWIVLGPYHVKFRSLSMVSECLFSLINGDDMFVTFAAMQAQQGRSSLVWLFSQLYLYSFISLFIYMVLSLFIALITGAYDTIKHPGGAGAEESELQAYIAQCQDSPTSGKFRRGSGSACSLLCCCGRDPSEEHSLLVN
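TRPML1-DL cells, Tet-induced overnight (~16 h, 37 °C) at 1,500 cells/well, were loaded with Ca8 no-wash dye plus quencher for 45-90 min at room temperature. Compounds were pinned during FDSS kinetic reading; agonist 54-4 at EC80 (4 uM final) then added.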
TRPML1 agonist – human mucolipin-1 channel agonism | TRPML1-expressing cells, Ca2+ dye fluorescence, FDSS; host cell line not named in the record; reference of the full effect not given here | activation, % (test concentration not listed) | 410,000 tested, 0.12% active | AID 624414; in the data active = activation above about 50%; inconclusive = about 30% to 50%; inactive = below about 30%; further: 0% is about no effect; the text of the record puts the active cut at 80%
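Calcium fluorescence on an FDSS kinetic reader gave the read-out. Tet-induced TRPML1-DL cells were plated overnight, dye-loaded (Ca8 with quencher, 45-90 min, room temperature, dark), then read 110 s after compound addition, and again 110 s after 4uM final 54-4 (EC80).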
CtBP-E1A blk – blocks the CtBP interaction with E1A; AlphaScreen GST-E1A/His-CtBP binding, 1536-well; active compounds read low; control for the full effect not named in the record; activity change, % (no concentration beside the values); 340,000 tested, 0.49% active; AID 651724; in the data active means activity change below about -65%; inconclusive means about -30% to -65%; inactive means above about -30%; further: on the % scale 0 is the no-effect control and ±100 the full control effect
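AlphaScreen with 125 nM GST-E1A and 125 nM His-CtBP (5X stocks) in Tris pH 8.0, 300 mM NaCl, BSA, Tween 20, TCEP. Compounds preincubated 2 h at 37 deg C, then glutathione donor/nickel acceptor beads added for 1 h at 37 deg C in dark.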
Six1-Eya2 inh – Six1/Eya2 interaction inhibition; Q15475+O00167; AlphaScreen GST-Six1/His-Eya2 binding, biochemical; active compounds read low; control for the full effect not named in the record; 360,000 tested, 0.56% active; activity change, % (no concentration beside the values); in the data active = activity change below about -65%; inconclusive = about -30% to -65%; inactive = above about -30%; further: on the % scale 0 is the no-effect control and ±100 the full control effect
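Compounds are tested against tagged Six1 and Eya2 proteins bridged by glutathione donor and nickel acceptor beads; after a one-hour incubation at 37 °C without light, AlphaScreen emission is recorded.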
D2 PAM – positive allosteric modulators of human D2 dopamine receptor; P14416; DiscoveRx D2 beta-arrestin cells, luminescence, 90 min; 100% = 57 uM dopamine signal; potentiation, % (no concentration beside the values); 360,000 tested, 0.23% active; active = potentiation of 50% or more; inconclusive = 30% to 50%; inactive = 30% or less;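 further: compound concentration not given in the record; tested on top of an EC20 dose of dopamine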
Target sequence (P14416 whole entry, looked up): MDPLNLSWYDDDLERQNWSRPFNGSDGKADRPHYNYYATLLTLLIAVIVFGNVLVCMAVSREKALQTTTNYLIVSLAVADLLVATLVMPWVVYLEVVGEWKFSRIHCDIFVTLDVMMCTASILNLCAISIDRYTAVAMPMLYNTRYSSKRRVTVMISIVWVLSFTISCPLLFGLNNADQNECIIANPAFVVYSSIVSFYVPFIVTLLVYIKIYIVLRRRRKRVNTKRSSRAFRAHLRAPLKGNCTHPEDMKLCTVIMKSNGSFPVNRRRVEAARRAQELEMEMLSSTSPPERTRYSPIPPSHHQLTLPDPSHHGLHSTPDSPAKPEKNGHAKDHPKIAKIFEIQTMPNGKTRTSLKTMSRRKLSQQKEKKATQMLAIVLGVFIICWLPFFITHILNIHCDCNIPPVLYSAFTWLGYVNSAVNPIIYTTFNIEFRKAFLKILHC
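D2 cells co-treated with compound plus 50 nM dopamine (EC20) for 90 min at 37 deg C to detect potentiation. Beta-arrestin recruitment was read as enzyme-fragment luminescence after 1 h at ambient temperature. Full response was set by 57 uM dopamine.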
TRPV1 PAM – potentiators of human vanilloid receptor 1 (TRPV1); potentiation, % at 8.33 µM; TRPV1-expressing cells, Fluo-8 calcium influx, capsaicin EC20 potentiation; host cell line not named in the record; control for the full effect not named in the record; Q8NER1; 320,000 tested, 0.02% active; AID 540277; active means potentiation above 80%; inconclusive means 30% to 80%; inactive means below 30%; further: 0% is about no effect
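Cells expressing TRPV1 were dye-loaded with Fluo-8 and read kinetically: 10 s baseline, 3 min after compound (agonist portion), then 2 min after EC20 capsaicin (allosteric enhancer portion). Calcium-bound dye fluorescence at 480/520 nm.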
* marks the source's active call; other numbers are inactive results; ? = inconclusive; nt = not tested or not shown. The order is random. About 0.95% of those tested had a hit in this group.

SMILES	D2 PAM	TRPML1 agonist	CtBP-E1A blk	Six1-Eya2 inh	TRPV1 PAM	TRPML1 blocker
CCN(CC)S(=O)(=O)c1ccc(OCC(=O)NCc2ccccc2)cc1	2	0.2	6	0	-21	-2
COc1ccc(CN2C(=O)C(CC(=O)NC3CCCCC3)CC(C(=O)N(C(C)C)C(C)C)=C2C)cc1 (stereo unspecified)	-1	0.1	-12	-24	nt	-1
C=CCSc1nnc(-c2cc3c(C(F)(F)F)nn(C)c3s2)n1C	-5	-1.2	-2	-10	nt	-7
CC(=O)N1CCN(C(=S)NCc2ccccc2)CC1	10	0.4	4	4	-9	24
COCCNC(=O)C1(C)CCN(C(=O)COc2ccc(Cl)cc2Cl)C1 (stereo unspecified)	-1	-0.3	4	4	nt	nt
CCCCCCc1cc2cc(S(=O)(=O)c3ccc(C)cc3)c(=O)oc2cc1O	25	7.8	25	23	-17	-4
Cc1ccnc(N=Cc2nc(-c3ccccc3Br)oc2O)c1	-7	0.4	nt	3	12	5
Cc1c[nH]c2cccc(OCC(O)CNC(C)(C)C)c12 (stereo unspecified)	-18	-0.2	-6	-4	8	9
COc1ccc(-c2noc(CCC(=O)Nc3cc(Cl)c(OC)cc3OC)n2)cc1	-8	0.9	-1	-2	13	-8
CC(=O)Nc1ccc(NC(=O)C(C)OC(=O)CCCOc2ccc(Cl)cc2C)cc1 (stereo unspecified)	-4	3.8	-1	-2	6	-3
O=C(c1ccc(CS(=O)c2cccc(Cl)c2)o1)N1CCN(c2ccccn2)CC1 (stereo unspecified)	9	0.8	6	4	-1	5
Cc1cccc(C)c1N1C(=O)C(Cl)=C(N2CCCC2)C1=O	-3	2.4	33	50	6	-14
Cc1ccc(/C=C/C(=O)O)cc1S(=O)(=O)N1CCCCC1	-3	0.9	0	24	8	-1
O=C(N/N=C/c1ccc(O)c(O)c1)C1CC1	-13	-0.3	nt	-1	nt	4
COc1ccc2c(c1)sc(=N)n2CC(=O)Nc1cc(C)cc(C)c1	-20	0.8	-5	2	?	13

SMILES	D2 PAM	TRPML1 agonist	CtBP-E1A blk	Six1-Eya2 inh	TRPV1 PAM	TRPML1 blocker
Cn1c2ccccc2c2c(=O)oc3ccccc3c21	nt	-0.9	-5	-1	nt	-6
Cc1[nH]c(=O)[nH]c(=O)c1S(=O)(=O)Nc1ccc(F)c(Cl)c1	1	2.6	6	3	-15	8
O=C(c1cc(-c2ccncc2)nc2ccccc12)N1CCOCC1	-14	-1.0	0	6	9	-16
CCOc1c(Br)ccc2c1sc1nc[nH]c(=O)c12	-14	1.3	?	-28	-8	29
O=C(O)c1cnn(-c2ccccc2)c1-c1ccncc1	-5	1.0	-4	0	15	23
CC(C)Cn1c(N)c(C(=O)COC(=O)c2ccc(Cl)cc2)c(=O)n(C)c1=O	0	-0.2	3	6	16	10
COCCn1c(SCC(=O)Nc2cc(OC)ccc2OC)nc2c(c1=O)SC(C)C2 (stereo unspecified)	-1	1.5	-16	-9	22	1
S=c1[nH]nc(-c2ccccn2)n1/N=C/c1ccc(Cl)c(Cl)c1	-14	0.1	?	?	26	9
O=C(CSc1ccc([N+](=O)[O-])cc1)c1ccccc1	-11	0.4	10	-9	nt	3
CCOC(=O)c1ccc(NC(=O)c2nc[nH]c2C(=O)NCCNC(=O)c2[nH]cnc2C(=O)Nc2ccc(C(=O)OCC)cc2)cc1	15	-0.6	3	-2	nt	-5
OC(CNCCc1ccc(C(F)(F)F)cc1)COc1cccc2ccccc12 (stereo unspecified)	-18	0.8	nt	8	11	5
CC1CCCN(S(=O)(=O)c2ccc3c(c2)C(C)(C)C(=O)N3C)C1 (stereo unspecified)	2	0.4	-1	3	7	1
CCC(=O)c1cn(CC(=O)Nc2ccc(C)cc2C)c2ccccc12	-7	-1.5	2	-5	11	7
CCC(C)NC(=O)CSc1nc2ccccc2c(=O)n1CCCC(=O)NCC1CCCO1 (stereo unspecified)	-7	0.3	-5	1	-1	-11
CC(=NNC(=S)N1CCCC1)c1ccccn1	-35	0.1	-20	?	nt	5

Rewritten with two lines to a compound: entries from further up
Values in the order – D2 PAM	TRPML1 agonist	CtBP-E1A blk	Six1-Eya2 inh	TRPV1 PAM	TRPML1 blocker
> S=c1[nH]nc(-c2ccccn2)n1/N=C/c1ccc(Cl)c(Cl)c1
→ -14	0.1	?	?	26	9
> O=C(c1cc(-c2ccncc2)nc2ccccc12)N1CCOCC1
→ -14	-1.0	0	6	9	-16

Continued:
SMILES	D2 PAM	TRPML1 agonist	CtBP-E1A blk	Six1-Eya2 inh	TRPV1 PAM	TRPML1 blocker
COc1ccc(OC)c(NS(=O)(=O)c2ccc(Br)s2)c1	nt	0.3	nt	nt	?	10
Cc1ccc2nsnc2c1S(=O)(=O)N(Cc1ccco1)Cc1cc2ccc(C)c(C)c2[nH]c1=O	-17	0.3	0	5	5	6
O=C(OCC(=O)N1CCN(C(=O)c2ccco2)CC1)c1sc2ccccc2c1Cl	7	0.4	-6	-2	-4	5
C=C(C)Cn1c(CCNC(=O)c2ccco2)nc2ccccc21	-4	0.5	-11	2	12	-7
Cc1ccc(S(=O)(=O)NCc2nc(-c3ccccc3)no2)cc1	16	2.3	3	6	1	11
CCOc1ccc(C(=O)N[C@H](C(=O)N2CCN(c3ncccn3)CC2)C(C)C)cc1	-3	-1.0	2	-5	nt	2
CCOC(=O)c1cc2c(=O)c3ccccc3oc2nc1C	-10	0.8	nt	8	3	22
COc1ccc(Cl)cc1NC(=O)CN1C(=O)NC2(CCCC2)C1=O	-7	-0.3	0	19	17	22
COC(=O)c1cc(C(=O)OC)cc(-n2c(C)cc(C=O)c2C)c1	4	-0.5	-7	4	0	9
COc1cccc(/C=N/NC(=O)c2cc3c(OC)cccc3[nH]2)c1O	5	0.0	-24	-29	-4	43
COC(=O)c1cccc(-n2nnnc2SCC(=O)Nc2cc(C)on2)c1	-20	0.7	-2	4	13	53
Cc1cc(C)c2nc(-c3ccncc3)cc(C(=O)N3CCN(Cc4ccccc4Cl)CC3)c2c1	4	-0.3	-4	-6	4	-11
CCOC(=O)C1(C)NC(c2ccco2)C2C(=O)N(c3ccc(C)cc3)C(=O)C21 (stereo unspecified)	-14	3.7	2	1	24	-19
COc1ccc(N2CCN(C(=O)CNC(=O)c3nn(-c4ccc(OC)cc4)c(=O)c4ccccc34)CC2)cc1	4	1.9	-17	-16	1	54
CC(=NNC(=O)Cn1ccc(C(F)(F)F)n1)c1ccc(-n2ccnc2)cc1	0	0.8	-1	-8	nt	1

SMILES	D2 PAM	TRPML1 agonist	CtBP-E1A blk	Six1-Eya2 inh	TRPV1 PAM	TRPML1 blocker
COc1ccc(-c2nc3ccc(Cl)cn3c2Cc2ccc(C)cc2)cc1OC	-8	1.1	-1	-1	nt	17
COc1cc(/C=N/NC(=O)CC(=O)NC2CCCCC2)ccc1O	-7	-0.4	-1	-7	3	-21
Cc1cccc(NS(=O)(=O)c2ccc(C)c(C(N)=O)c2)c1	3	-1.0	1	2	4	18
CC(=O)N1CCN(c2nc(-c3ccco3)c3c(c2C#N)CC(C)(C)SC3)CC1	8	-0.7	4	1	-7	-4
O=C(Nc1c(-c2ccccc2)nc2sccn12)c1ccccc1	-10	-0.7	2	-1	6	2
NC(=O)c1c(NC(=O)C2c3ccccc3Oc3ccccc32)sc2c1CCCCC2	-8	-0.2	0	-1	11	-6
O=C1CCCN1CCC(=O)N1CCCC(Nc2ccc(F)c(F)c2)C1 (stereo unspecified)	2	0.2	2	9	-7	15
Cc1ccc(NC(=S)N(CCN2CCCCC2)Cc2ccco2)cc1C	-5	0.1	?	-14	3	-2
CCOC(=O)c1[nH]ncc1CN1CCc2ccc(NC(=O)C3CCCO3)cc2C1 (stereo unspecified)	-10	0.1	9	5	-18	-7
Fc1ccc(NC(=S)N/N=C/c2cccc(Br)c2)c(F)c1	2	-0.2	3	-1	-3	15
Cc1cc2c(c(N3CCOCC3)n1)C(=O)OC2	-16	-0.2	4	2	4	1
O=C1OCCC1Sc1nnc(-c2ccc(Cl)cc2Cl)o1 (stereo unspecified)	-3	2.0	-12	4	nt	-26
c1ccc(-c2ccc(-c3cn4c(n3)CCC4)cc2)cc1	6	0.0	-14	-18	-16	21
CSc1nc2nc(-c3cccs3)cc(C(F)(F)F)c2c(=O)[nH]1	1	-0.6	-1	4	11	0
COCC(=O)Nc1sc2c(c1C(=O)OC)C(C(=O)OC)CC2 (stereo unspecified)	-1	-0.7	6	0	11	7

SMILES	D2 PAM	TRPML1 agonist	CtBP-E1A blk	Six1-Eya2 inh	TRPV1 PAM	TRPML1 blocker
CC(OC(=O)c1cc2sccc2n1C)C(=O)NCCc1ccccc1 (stereo unspecified)	-4	2.7	2	-2	0	12
Cc1ccc(C)c(NS(=O)(=O)c2ccc(OCC(=O)NCc3cccnc3)cc2)c1	-9	-0.5	0	11	3	-25
O=C(CCc1nc2sc3c(c2c(=O)[nH]1)CCCC3)NCC(=O)Nc1ccccc1Br	-7	-0.6	-24	-17	5	0
CC(=O)c1cccc(NC(=O)[C@@H](NC(N)=O)C(C)C)c1	0	0.0	2	0	1	-5
Cn1ccnc1Sc1nnnn1-c1ccccc1	1	-0.1	3	-1	6	-9
CCc1ccc(N2CC(C(=O)OCC(=O)NC3CCS(=O)(=O)C3)CC2=O)cc1 (stereo unspecified)	-1	1.5	7	4	10	-3
CC(Cc1ccccn1)NC(=O)c1ccc(OC2CCN(Cc3ccccn3)CC2)cc1 (stereo unspecified)	4	-0.2	-7	1	26	-7
COc1ccccc1C(=O)NCCC(=O)Nc1ccncc1	-17	-0.5	-2	5	-2	9
NC(=S)N/N=C/c1ccc([N+](=O)[O-])cc1	1	-0.7	-1	-6	-7	-2
COCCCNC(=S)N1CCN(c2nc(-c3ccccc3)cs2)CC1	-1	0.8	-9	-14	-8	11
O=C(CSc1ncn[nH]1)NCCC(c1ccccc1)c1ccccc1	-8	-1.1	0	-2	-18	-10
CC(=O)c1cccc(-c2cnc3c(NC=O)cc(-c4cccc(C(=O)N(C)C)c4)cn23)c1	7	-0.8	-11	-17	nt	nt
COc1ccc(S(=O)(=O)N2CCN(Cc3ccccc3)CC2)cc1	-16	1.2	4	0	5	15
Cc1cc(OC(C)C(=O)NCCCn2ccnc2)c2c(C)cc(=O)oc2c1 (stereo unspecified)	-2	-0.3	2	2	16	-10
CCCS(=O)(=O)NC(=O)C1(C)CCN(C(=O)c2ccccc2Br)C1 (stereo unspecified)	3	-0.1	9	5	nt	nt

SMILES	D2 PAM	TRPML1 agonist	CtBP-E1A blk	Six1-Eya2 inh	TRPV1 PAM	TRPML1 blocker
COc1cc(CN2CCN(Cc3ccc([N+](=O)[O-])cc3)CC2)c([N+](=O)[O-])cc1OC	-3	-1.1	nt	-24	-8	-1
O=C(NCCc1ccccc1)C1CCCN1S(=O)(=O)c1ccccc1 (stereo unspecified)	5	0.0	3	11	6	-22
COCCNC(=S)N=Nc1c(O)[nH]c2c(C)cc(C)cc12	-2	-1.5	-12	-4	-3	12
O=C(CSC1=NC(=O)C(Cc2ccccc2)C(=O)N1)Nc1ncc(Br)cc1Br (stereo unspecified)	-3	-0.7	-14	-28	0	27

Assay outcomes as filed in PubChem BioAssay.
